# eIF4H inh – inhibitors of RNA binding by human eIF4H; Q15056; eIF4H fluorescence polarization binding assay; inhibition, % at 35 µM; 290,000 tested, 0.94% active;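 active = 50% or more with normal probe brightness, or confirmed in later tests; inconclusive = above 50% with abnormal brightness, or retests that disagree; inactive = below 50% or failed in later tests; about a fifth of its hits are not listed in these tables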;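 also: calls also rest on retests at 20 µM and on dose response follow-up; 0% = protein and probe with vehicle and 100% = probe without protein; strong numbers were not always called active; many hits fall short of the cut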
# CSC inhib – cancer stem cell inhibition; inhibition, % at 7.5 µM; 300,000 tested, 1.1% active; cancer stem cell-like cells viability, luminescence;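 active = mean at 75% or more and at least half the replicates too; inconclusive = mean and replicates disagree; tested in HMLE shEcad cells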;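 also: 0% = median of negative and 100% = median of positive control wells; the first replicate is given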
# MT1-MMP act inh – blocks activation of human MT1-MMP. HT1080 RFP-PRO-GFP cells, GFP/RFP ratio fluorescence, overnight; percent of plate control window, DMSO zero. P50281. GFP/RFP ratio change, % at 20 µM. 360,000 tested, 0.061% active;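 active = GFP/RFP ratio change of at least 30% with cell ATP level not reduced by more than half and red fluorescence within 50% of control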; also: strong numbers were not always called active
#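 Assay system: HT1080 cells carrying an RFP-PRO-GFP reporter | Dosing: Single dose of 20 µM compound, 1% DMSO final | Incubation: Cells overnight before dosing, compound overnight, 37 °C, 5% CO2 | Evaluation: GFP/RFP fluorescence ratio | Control set: DMSO and RFP-L50D-GFP cell wells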
# Rce1 inhib – inhibitors of yeast Ras-converting enzyme. Q03530. yeast membranes, quenched prenylated peptide cleavage fluorescence. calls only. 290,000 tested, 0.27% active. AID 2563;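 active = fall in fluorescence gain of 50% or more versus controls, with final raw signal at or below 3038400; inconclusive = same 50% fall but final raw signal above 3038400; inactive = fall in fluorescence gain under 50%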;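 also: plate controls were neutral control wells for no effect and wells lacking membranes for full effect; tested at 10 µM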
# Target sequence (Q03530 whole entry, looked up): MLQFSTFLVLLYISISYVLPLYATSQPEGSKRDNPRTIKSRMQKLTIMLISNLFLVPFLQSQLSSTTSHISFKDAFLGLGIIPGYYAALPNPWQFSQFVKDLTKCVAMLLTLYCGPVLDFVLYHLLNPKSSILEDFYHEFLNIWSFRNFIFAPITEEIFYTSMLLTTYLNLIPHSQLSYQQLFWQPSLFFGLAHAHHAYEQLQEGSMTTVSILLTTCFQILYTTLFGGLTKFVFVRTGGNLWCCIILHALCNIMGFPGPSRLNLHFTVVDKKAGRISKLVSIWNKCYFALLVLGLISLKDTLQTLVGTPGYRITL
# HIV Env fusion – blocks HIV Env-driven cell-cell fusion; HeLa-JRFL Env/CEM21 cell fusion, luciferase; inhibition, % at 12.3 µM; 360,000 tested, 1.1% active; AID 651610;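 active = mean replicate inhibition score of at least 50 and every replicate individually at or above 50; inconclusive = only one of the two criteria met; inactive = mean below 50 and not all replicates reaching 50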;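 also: 0% = plate neutral controls and 100% = maraviroc near 300 nM; one replicate is shown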
# PABP polyA inh – blocks human PABP binding to poly(A) RNA. P11940. fluorescence polarization. inhibition, % at 35 µM. 290,000 tested, 1% active;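 active = 50% or more with normal probe brightness, or confirmed in later tests; inconclusive = above 50% with abnormal brightness, or retests that disagree; inactive = below 50% or failed in later tests; about a fifth of its hits are not listed in these tables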;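 also: calls also rest on retests at 20 µM and on dose response follow-up; controls were probe without protein and protein plus probe with vehicle; some compounds called inactive have numbers as strong as hits; many hits fall short of the cut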
# Yeast UUG start – alters start codon recognition fidelity in yeast; activity score, % at 18.7 µM; S. cerevisiae UUG-firefly luciferase reporter, luminescence/redox ratio; AID 602363; 350,000 tested, 0.13% active;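 active = replicate mean at a twofold rise or more, about +100% in these data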;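 also: firefly luciferase made from a UUG start codon reports start codon fidelity; reporter light over untreated wells divided by growth signal over untreated wells; some hits fall short of that in this replicate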
# eIF4H inh retest – second read-out of eIF4H inh, no call of its own (marks repeat the call); inhibition, %; compound at 20 µM; confirmation average;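 mean of two retest wells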
# PABP polyA inh retest – second read-out of PABP polyA inh, no call of its own (marks repeat the call); inhibition, %; compound at 20 µM; confirmation repeats;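 mean of two retest wells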
# MT1-MMP act inh RFP – recorded beside MT1-MMP act inh, whose call it bears; RFP signal change, %; measured here: RFP expression control read;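 0 = vehicle wells; hits needed this value within 50% of zero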
# Active calls of the source: *; i = inactive; ? = inconclusive; nt = no result given; & = joins results of further samples.
SMILES,eIF4H inh,CSC inhib,MT1-MMP act inh,MT1-MMP act inh RFP,Rce1 inhib,HIV Env fusion,PABP polyA inh,Yeast UUG start,others
CC(C)CC1Nc2ncnc(N3CCN(c4ccccn4)CC3)c2N(Cc2ccccc2)C1=O (centres undefined),nt,nt,-6&1,-2&1,nt,4,nt,3&-1,
CSCCC(NS(=O)(=O)c1ccc(Cl)cc1)C(=O)OCC(=O)N1CCOCC1 (centres undefined),nt,-14,-3,-5,i,-16,nt,-14,
Cc1nc(C)n(CC(C)C(=O)N2CCN(S(=O)(=O)c3ccccc3)CC2)n1 (centres undefined),-2,-5,2,-1,i,-6,-3,nt,
CCc1ccc(-c2cn(C3CCCCC3)c(=S)[nH]2)cc1,-4,36,-5,-10,i,-16,-3,nt,
CCNC(=O)C1CCN(S(=O)(=O)c2ccc(F)cc2)CC1,-5,-10,1,-2,i,-38,-8,-16,
Cc1ccc(C(=O)N/N=C/c2ccc(-c3ccccc3[N+](=O)[O-])o2)cn1,5,4,1,1,i,33,42,nt,
COc1cc2[nH]c(=O)n(CCC(=O)NCCCN3CCN(c4ccccc4F)CC3)c(=O)c2cc1OC,-11,-5,2,7,i,41,-15,-15,
CC1=C(C)CC2C(=O)N(Cc3ccccc3)C(=O)C2C1 (centres undefined),-5,-7,1,4,i,nt,7,-17,
CCC(C(=O)NC(C)(C)C)N(Cc1ccc(F)cc1)C(=O)c1snc(C(N)=O)c1N (centres undefined),4,0,nt,nt,i,27,-3,11,
CCC(=O)Nc1nc2ccccc2n1Cc1ccc(C)cc1,-1,-7,0,-6,i,nt,-6,-8,
CN1C(=O)[C@@H]2[C@@H]3C[C@@H]([C@H]4ON=C(c5ccc(Cl)cc5Cl)[C@@H]34)[C@@H]2C1=O,3,nt,3,-1,i,nt,0,nt,
Cc1ccc2c(c1)N(Cc1ccc([N+](=O)[O-])cc1)C=NS2(=O)=O,-8,5,4,-5,i,-11,0,-8,
O=C(NCc1ccccn1)C(=O)NN=C1CCCCCCC1,4,-21,0,5,i,-3,-4,nt,
CC(=O)c1cccc(S(=O)(=O)N2CCCC(c3nc4c(nnn4Cc4cccc(Cl)c4)c(=O)[nH]3)C2)c1 (centres undefined),7,-3,0,-3,nt,6,-3,10,
CCc1cc2c(=O)c(-c3nc4ccccc4n3C)c(C)oc2c(CN(CC)CC)c1O,-2,-12,5,5,i,nt,-1,-21,
Cc1nn(-c2ccccc2)c2c1C(O)CC(C)(C)C2 (centres undefined),0,-16,0,3,i,-6,4,-20,
Cn1c(CNc2ccc(F)cc2)nnc1SCC(=O)NNC(=O)Cc1ccccc1,-11,-9,0,4,i,6,-2,nt,
CC(C(=O)NC1CCCCCC1)c1ccc([N+](=O)[O-])cc1 (centres undefined),-8,-14,1,-4,i,-20,-6,-17,
COc1ccc(Cc2nnc(NCCO)[nH]c2=O)cc1,nt,-6,2,4,i,-1,nt,-8,
CCOc1ccc(C(=O)Nc2nncs2)cc1OCC,-1,-7,-3,6,i,nt,4,-4,
COC(=O)Nc1ccc2c(c1)N(C(=O)CCN1CCN3CCCC3C1)c1ccccc1CC2 (centres undefined),-4&10,-6&-10,5&-5,1&-2,i,-27&-1,7&7,-12,
COC(=O)c1ccc(Oc2ccc(S(=O)(=O)N3CCCCC3)cc2N)cc1,0,-3,-2,-25,i,1,11,-1,
COc1cccc(CNC(=O)C2CSC3(C)CCC(=O)N23)c1 (centres undefined),nt,-5,-11,5,i,1,nt,-7,
CC1CCCCN1CCNC(=O)C1CCN(S(=O)(=O)c2cccc3cccnc23)CC1 (centres undefined),26,-7,-7,4,i,-49,-1,-3,
CCOC(=O)C1CCN(CC(O)COc2ccc(C(C)(C)CC)cc2)CC1 (centres undefined),-8,5,4,0,nt,?,-6,-12,
CCc1ccccc1NC(=O)c1ccc(S(=O)(=O)NCC2CCCO2)cc1 (centres undefined),-13,-6,0,-8,nt,-5,-10,4,
COc1ccc2ccccc2c1CN(C)Cc1ccccc1,2,3,0,-3,i,18,3,-4,
O=C(Nc1cccc(Cl)c1Cl)c1ccccc1OCC(=O)N1CCOCC1,-12,-4,-1,1,i,23,4,-15,
CC(C)c1ccc(NC(=O)C2(C)Cc3c(-c4ccc(C(N)=O)cc4)ccnc3O2)cc1 (centres undefined),nt,nt,-1,-8,nt,-21,nt,-6,
CC1(C(=O)Nc2cccc(NS(C)(=O)=O)c2)CCN1CCc1ccccc1 (centres undefined),nt,nt,2,-2,nt,-2,nt,-11,
Cc1ccc(NC(=O)CCc2c(C)[nH]c(=O)c(C#N)c2C)cc1,-14,-15,0,-4,i,4,1,nt,
CCOc1cc(C(N)=O)cc(OCC)c1OCC,-9,8,5,6,i,-34,-9,-17,
Cc1ccc2c(c1)[C@@H]1CN(C)CC[C@@H]1N2S(=O)(=O)c1ccc([N+](=O)[O-])cc1,1,-4,-7,-4,i,nt,17,-5,
O=C(NNc1nc2cc3c(cc2s1)OCCO3)c1ccccc1,-7,-1,5,4,i,-13,4,nt,
Cc1ccc(S(=O)(=O)N2CCN(C(C)C(=O)NCC(C)c3ccccc3)CC2)cc1 (centres undefined),nt,7,-2,-3,nt,nt,nt,6,
O=C(c1cccc(F)c1)N1C2C=CC(C2)C1(C(F)(F)F)C(F)(F)F (centres undefined),7,-11,-4,1,i,nt,-1,nt,
O=C(COc1ccc(Cl)cc1Cl)NN=C1CCCCC1,-9,-16,2,1,i,19,-6,-14,
COc1ccc(NC(=O)COC(=O)CCc2nc3ccccc3c(=O)[nH]2)cc1Cl,nt,-24,0,0,nt,nt,nt,-13,
O=C(/C=C/c1ccccc1)NC(NC(=S)Nc1ccc(C(=O)O)cc1)C(Cl)(Cl)Cl (centres undefined),-12,-7,-3,-3,i,-39,-10,nt,
COc1cc(C)c(S(=O)(=O)N2CCCC2)cc1C(C)C,2,8,0,2,i,5,-14,nt,
CC(C)(C)c1ccc(S(=O)(=O)N2CCN(CC(O)CN3CCOCC3)CC2)cc1 (centres undefined),nt,-7,5,3,nt,10,nt,-2,
Cc1noc(C)c1C(=O)N(CC(C)C)c1nc2ccccc2s1,1,9,0,2,i,nt,-5,-19,
Cc1ccc(COC(=O)c2nn(C)c(=O)c3ccccc23)cc1,3,27,-14,-26,i,-18,-9,nt,
C=CCC(CC)C(=O)NC(=O)N1CCCc2ccccc21 (centres undefined),5,-11,-2,2,i,2,3,-3,
CCCCC1=CC2=C(c3ccco3)C(=O)C(C)(OC(=O)c3ccc(OC)cc3)C(=O)C2=CN1CCCN(CC)CC (centres undefined),?,13,-22,10,i,16,?,-8,
Cn1c(=O)oc2cc(S(=O)(=O)N3CCc4ccccc4C3)ccc21,4,-17,2,4,i,nt,3,-7,
O=c1[nH]nc(SCCS(=O)(=O)c2ccc(F)cc2)n1-c1ccc2c(c1)OCCO2,2,19,1,-2,i,-4,12,0,
CC(C)Cc1ccc(CN2CCCC(NC(=O)c3cnc4ccccn4c3=O)C2)cc1 (centres undefined),-17,-2,-13,-28,i,6,5,-5,
COC(=O)c1c(NC(=O)c2ccc(C)c(S(=O)(=O)Nc3ccccc3C)c2)sc2c1CCCC2,-4,75*,-4,-7,i,-7,1,14,
COc1ccc(CNC(=O)C/C(C)=N/NC(=O)C23CC4CC(CC(C4)C2)C3)cc1,0,-4,-1,0,i,9,-5,-22,

# Carrying on:
SMILES,eIF4H inh,CSC inhib,MT1-MMP act inh,MT1-MMP act inh RFP,Rce1 inhib,HIV Env fusion,PABP polyA inh,Yeast UUG start,others
CCN(CC)CCNC(=O)c1ccc(NC(=O)Cc2ccsc2)cc1,-1,35,-3,-2,i,-30,5,8,
COc1ccc(C2c3c(ncn(Cc4ccco4)c3=N)Oc3ccc4ccccc4c32)cc1 (centres undefined),-3,94*,-1,-2,i,-13,16,-16,
O=C(c1cn(-c2ccccc2)nc1-c1cccs1)N1CCN(c2ccc(F)cc2)CC1,1,12,1,-7,nt,nt,2,-3,
CC(C)Nc1nc(NC2CCCC2)nc(N2CCOCC2)n1,nt,nt,21,-8,nt,-186,nt,-9,
O=C(CN1CCCCC1)Nc1ccccc1Oc1ccccc1,-2,?,0,-2,i,12,4,nt,
Cc1ccccc1NC(=O)NCCCN1CCN(c2ccccc2)CC1,-11,-19,5,9,i,-3,-12,nt,
COC(=O)c1ccc(N2CCN(C)CC2)c(NC(=O)COc2ccc(C)cc2)c1,-7,-5,3,-1,i,15,-7,-12,
CCc1ccccc1N(CC(=O)NC1CCCCC1)C(=O)CCCC(=O)Nc1ccccn1,2,nt,-1,0,i,-7,6,5,
COc1cc(/C=C(\C#N)C(=O)Nc2cccnc2)ccc1OC(C)C,-2,-15,0,0,nt,6,-2,nt,
Cc1ccc(C(=O)NC(=S)/C=C2\N(C)c3ccccc3C2(C)C)cc1,87,11,40*,21*,i,14,0,nt,eIF4H inh retest=49;PABP polyA inh retest=24
O=C(Nc1ccc(Cl)cc1)N(Cc1cccs1)Cc1cccs1,-8,-1,-15,-8,i,nt,-7,-15,
O=C(CN1CCOCC1)Nc1ccccc1Sc1ccccc1,-6,-6,-1,1,i,-22,-4,nt,
O=C(N/N=C/c1cccs1)C1CC(=O)N(c2ccccc2)C1 (centres undefined),-3,2,-4,-4,i,10,-5,-14,

# Not a retest: 12 of the compounds above.
SMILES,eIF4H inh,CSC inhib,MT1-MMP act inh,MT1-MMP act inh RFP,Rce1 inhib,HIV Env fusion,PABP polyA inh,Yeast UUG start,others
COc1ccc(C2c3c(ncn(Cc4ccco4)c3=N)Oc3ccc4ccccc4c32)cc1 (centres undefined),-3,94*,-1,-2,i,-13,16,-16,
O=C(c1cn(-c2ccccc2)nc1-c1cccs1)N1CCN(c2ccc(F)cc2)CC1,1,12,1,-7,nt,nt,2,-3,
CC(C)Nc1nc(NC2CCCC2)nc(N2CCOCC2)n1,nt,nt,21,-8,nt,-186,nt,-9,
O=C(CN1CCCCC1)Nc1ccccc1Oc1ccccc1,-2,?,0,-2,i,12,4,nt,
Cc1ccccc1NC(=O)NCCCN1CCN(c2ccccc2)CC1,-11,-19,5,9,i,-3,-12,nt,
COC(=O)c1ccc(N2CCN(C)CC2)c(NC(=O)COc2ccc(C)cc2)c1,-7,-5,3,-1,i,15,-7,-12,
CCc1ccccc1N(CC(=O)NC1CCCCC1)C(=O)CCCC(=O)Nc1ccccn1,2,nt,-1,0,i,-7,6,5,
COc1cc(/C=C(\C#N)C(=O)Nc2cccnc2)ccc1OC(C)C,-2,-15,0,0,nt,6,-2,nt,
Cc1ccc(C(=O)NC(=S)/C=C2\N(C)c3ccccc3C2(C)C)cc1,87,11,40*,21*,i,14,0,nt,eIF4H inh retest=49;PABP polyA inh retest=24
O=C(Nc1ccc(Cl)cc1)N(Cc1cccs1)Cc1cccs1,-8,-1,-15,-8,i,nt,-7,-15,
O=C(CN1CCOCC1)Nc1ccccc1Sc1ccccc1,-6,-6,-1,1,i,-22,-4,nt,
O=C(N/N=C/c1cccs1)C1CC(=O)N(c2ccccc2)C1 (centres undefined),-3,2,-4,-4,i,10,-5,-14,

# Some of the compounds tested; the hit share may differ from the screen's.
